# Screening results deposited in PubChem BioAssay by Broad Institute.
# T cruzi inh = T. cruzi replication inhibition; 1.4% of 300,000 active; inhibition, % (concentration not given with the values); T. cruzi beta-gal in NIH3T3, luminescence, 90 h; AID 1885;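 active means mean inhibition across valid replicates above about 55%, limit read from the data; inconclusive means mean below that limit but half or more replicates reach it; inactive means mean below it, under half of replicates reach it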;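 further: signal also drops with host cell toxicity which is not excluded here; 0% = plate median of DMSO wells and 100% = zero luminescence signal; higher percent means less beta-gal luminescence so fewer parasites; stock transfer was 50 nL into about 50 µL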
# Ecoli rRNA inh = selective bacterial rRNA inhibition in E. coli. E. coli WT GFP vs humanized-ribosome RFP mutants, fluorescence, 24 h; hits give low values; DMSO median 0, no signal -100. GFP signal change (wild-type ribosome), % (no concentration beside the values). 1.6% of 350,000 active;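 active means significant combined selectivity score with lowered wild-type GFP, culture density cut under 30%, mutant RFP and density less affected; inactive means any of these conditions unmet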; further: one replicate is shown; some compounds called inactive have numbers as strong as hits
# Beta cell apopt = beta cell apoptosis inhibition | INS-1E cytokine-induced death, ATP luminescence, 48 h; percent of positive-control rescue, neutral wells zero | protection from apoptosis, % (concentration not given with the values) | 0.8% of 300,000 active;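 active means all replicates at 75% or more, or half of them and the mean; inconclusive means half reach 75% but not the mean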;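 further: 0% = cytokine-treated negative control wells and 100% = positive control rescue; higher means more ATP so stronger rescue from cytokine killing; wells of about 40 µL received 100 nL stock; the first replicate is given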
# ALR inh = blocks human ALR sulfhydryl oxidase activity; P55789; purified ALR, DTT oxidation, H2O2 HRP-luminol luminescence; inhibition, % (no concentration beside the values); 3.8% of 290,000 active; AID 485317;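 active means mean and each replicate at 75% or more; inconclusive means only one of the two met; inactive means neither met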;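 further: stock transfer was 7.5 nL into about 7.5 µL; 0% = neutral wells and 100% = wells with inactivated enzyme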
# Target sequence (P55789 whole entry, looked up): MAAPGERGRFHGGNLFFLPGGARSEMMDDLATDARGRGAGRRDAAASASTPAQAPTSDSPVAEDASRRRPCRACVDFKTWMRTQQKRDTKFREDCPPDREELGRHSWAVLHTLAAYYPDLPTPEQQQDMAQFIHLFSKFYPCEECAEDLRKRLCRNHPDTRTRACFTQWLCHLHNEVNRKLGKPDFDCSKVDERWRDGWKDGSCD
# FGF22 binding = binders of recombinant human FGF22 by thermal shift; Q9HCT0; SYPRO orange fluorescence; percent of sucrose octasulfate shift, DMSO zero; calls only at 9.99 µM; 1.5% of 340,000 active; AID 651658;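 active means melting point raised past a set limit in the mean and every replicate; inconclusive means no clear call; three in four hits are not shown here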
# Target sequence (Q9HCT0 whole entry, looked up): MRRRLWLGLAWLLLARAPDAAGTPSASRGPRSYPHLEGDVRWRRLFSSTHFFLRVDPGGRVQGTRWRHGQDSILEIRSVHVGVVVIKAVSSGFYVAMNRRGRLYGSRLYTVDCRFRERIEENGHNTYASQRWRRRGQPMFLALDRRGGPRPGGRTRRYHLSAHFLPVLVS
# RanGTP-Impb inh = inhibitors of RanGTP-importin-beta interaction, primary screen, biochemical, FRET, CFP-Ran, YFP-importin-beta, homogeneous | inhibition, % (test concentration not listed) | 1.1% of 300,000 active | cell-free CFP-Ran/YFP-importin-beta FRET ratio;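 active means most replicates above 15%; inconclusive means exactly half above 15%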;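 further: 0% = DMSO wells and 100% = Ran loaded with GDP instead of GTP; wells of about 40 µL received 100 nL stock; the first replicate is given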
# Calb FLC = affects C. albicans growth with fluconazole. C. albicans CaCi-2 (fluconazole-resistant clinical isolate) + fluconazole, Alamar Blue growth, 48 h. growth inhibition, % (concentration not given with the values). 0.57% of 300,000 active;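 active means most replicates above 75%; inconclusive means exactly half above 75%; inactive means most below 75%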;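 further: all wells also contain fluconazole at 8 µg/ml as a sub-toxic cotreatment; 0% = median of DMSO wells and 100% = median of geldanamycin control wells; wells of about 8 µL received 7.5 nL stock; the first replicate is given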
# MLL AF4-AF9 inh = blocks AF4 peptide binding to human AF9; P42568; AlphaScreen, biotin-AF4 peptide binding to FLAG-AF9; inhibition, % at 10 µM; 0.47% of 350,000 active; AID 651704;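 active means every replicate reaching a set inhibition limit, whatever the replicate mean, cut at about 25% in these data; inconclusive means mean inhibition reaches that limit but some replicates miss it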;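 further: 0% = plate neutral control median and 100% = total signal loss; the record names both 10 and 1 µM as test concentration; the first replicate is given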
# Target sequence (P42568 whole entry, looked up): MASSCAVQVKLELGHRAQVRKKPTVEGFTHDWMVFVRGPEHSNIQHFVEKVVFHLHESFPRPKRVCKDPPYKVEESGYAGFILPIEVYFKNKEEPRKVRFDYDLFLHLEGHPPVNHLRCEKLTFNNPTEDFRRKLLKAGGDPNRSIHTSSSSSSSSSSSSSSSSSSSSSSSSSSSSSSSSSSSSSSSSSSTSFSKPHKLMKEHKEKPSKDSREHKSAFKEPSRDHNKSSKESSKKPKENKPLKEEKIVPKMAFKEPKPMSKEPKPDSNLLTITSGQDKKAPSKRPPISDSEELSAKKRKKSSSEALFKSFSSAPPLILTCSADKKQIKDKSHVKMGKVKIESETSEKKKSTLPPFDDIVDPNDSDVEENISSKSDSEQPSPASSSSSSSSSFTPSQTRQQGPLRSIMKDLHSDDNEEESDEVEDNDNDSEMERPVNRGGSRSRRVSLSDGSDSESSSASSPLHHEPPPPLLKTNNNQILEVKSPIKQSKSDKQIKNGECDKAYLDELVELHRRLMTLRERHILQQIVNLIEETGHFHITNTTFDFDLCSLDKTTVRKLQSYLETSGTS
# Ecoli rRNA inh OD600 = also measured in Ecoli rRNA inh; calls as there; OD600 change, %; measured here: OD600 growth;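 optical density of the mix in the first replicate; 0 = DMSO median and -100 = no signal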
# Ecoli rRNA inh RFP = also measured in Ecoli rRNA inh; calls as there; RFP signal change, %; measured here: RFP humanized mutant strains;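 first replicate; 0 = DMSO median and -100 = no signal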
# Numbers without * were called inactive; i = inactive; ? = inconclusive; · = not tested or not shown.
SMILES,T cruzi inh,Ecoli rRNA inh,Ecoli rRNA inh OD600,Ecoli rRNA inh RFP,Beta cell apopt,ALR inh,FGF22 binding,RanGTP-Impb inh,Calb FLC,MLL AF4-AF9 inh
COc1cc(-c2cc(C(=O)Nc3ccc(S(=O)(=O)Nc4ncccn4)cc3)c3ccccc3n2)cc(OC)c1OC,-14,10,0,-3.9,2,-12,·,-0.8,-2,-2.6
CCCCNC(=O)COC(=O)c1c2c(nc3ccccc13)CCC2,0,1,10,0.6,1,-2,i,-6.1,-1,-0.1
COC(=O)c1ccccc1S(=O)(=O)N1CCC(NC(=O)c2ccccc2)CC1,2,8,9,2.0,0,·,i,4.6,-7,-1.7
O=[N+]([O-])c1ccc(S(=O)(=O)c2cccc(C(F)(F)F)c2)nc1,66*,·,·,·,57,-9,·,3.0,0,·
CC(CCc1ccccc1)NC(=O)C1CCN(S(=O)(=O)c2cnc[nH]2)CC1 (centres undefined),-14,·,·,·,-8,-2,·,0.7,·,·
Cc1ccc(CN2CCN(Cc3cnn(-c4ccc(F)cc4)c3)CC2CCO)o1 (centres undefined),-1,18,10,2.1,-18,·,i,2.1,-16,1.6
COC(=O)c1[nH]c2c(c1C)C(=O)CCC2,0,·,·,·,-8,·,·,-0.5,-11,·
CCOC(=O)c1c(-c2cccc([N+](=O)[O-])c2)cn2ccccc12,4,10,2,-7.5,-3,·,i,?,29,0.3
O=C(NCc1ccccc1)c1ccc(NC(=O)c2ccccc2F)cc1,-10,6,12,1.1,1,-1,i,-1.6,4,-1.9
COc1cccc(N2CCN(S(=O)(=O)c3ccc4c(c3)NC(=O)C(C)C(=O)N4)CC2)c1 (centres undefined),7,-9,-3,-3.6,1,12,i,0.6,8,1.8
CC1CCN(Cc2csc(N)n2)CC1,0,·,·,·,-4,-25,·,1.3,1,·
O=C(CCNS(=O)(=O)c1ccc(Cl)cc1)N1CCCC1,-13,9,14,4.1,3,-24,i,-3.5,-3,0.5
O=C1c2oc3ccc(F)cc3c(=O)c2C(c2cccc(O)c2)N1CCCN1CCOCC1 (centres undefined),-8,7,9,1.2,-3,-10,i,2.2,0,-2.8
C=CCc1ccc(OCCOCCNCCCC)c(OC)c1,10,·,·,·,-10,-21,·,-2.1,-20,·
C=CCN(CC=C)S(=O)(=O)c1ccc(NC(=S)NC(=O)/C=C/c2cccc3ccccc23)cc1,-17,·,·,·,9,-11,·,5.1,2,·
CCOc1cccc(CN2CCC(n3nccc3NC(=O)C3CCCC3)CC2)c1,18,7,-3,2.5,3,0,i,3.2,-26,5.9
O=C(COC(=O)c1ccco1)c1ccc2ccccc2c1,9,·,·,·,-5,-2,·,5.0,-4,·
Cc1noc(NS(=O)(=O)c2ccc(N3Cc4ccccc4C3=O)cc2)c1C,5,·,·,·,0,2,·,?,1,·
Cc1ccc(CN2CCN(Cc3ccc(-n4cccn4)cc3C)CC2CCO)cc1 (centres undefined),62*,-3,3,-0.8,2,-1,i,2.3,-13,1.6
COc1ccccc1NC(=O)CSc1nncs1,·,20,15,2.8,-6,-4,i,·,·,-0.6
COc1ccc2oc(=O)c(C(=O)OCC(=O)c3ccc([N+](=O)[O-])cc3)cc2c1,11,·,·,·,1,6,·,-1.7,3,·
CCc1ccc(/C=C2/C(=O)N(c3ccccc3)C(=S)N2CC(=O)OC)s1,20,·,·,·,4,-10,·,-38,-10,·
CCOC(=O)c1c(C)[nH]c(C(=O)COC(=O)CCNS(=O)(=O)c2ccc(NC(C)=O)cc2)c1C,·,-2,-16,0.6,-3,-1,i,·,·,-1.2
Cc1ccc(N(Cc2ccccc2F)S(C)(=O)=O)cc1C,0,-43,-36,-13,-5,-15,i,1.5,30,-6.7
N/C(=N\OC(=O)/C=C/c1ccccc1Cl)c1ccccn1,-9,-1,2,2.5,-4,-4,i,0.9,-18,-1.5
# Continuation:
SMILES,T cruzi inh,Ecoli rRNA inh,Ecoli rRNA inh OD600,Ecoli rRNA inh RFP,Beta cell apopt,ALR inh,FGF22 binding,RanGTP-Impb inh,Calb FLC,MLL AF4-AF9 inh
O=C(CSc1c[nH]c2ccccc12)NC1CCCC1,-2,2,7,3.4,-6,-14,i,-0.8,2,-0.1
O=C(Nc1cccnc1)c1ccc(S(=O)(=O)N2CCCCCC2)cc1,-7,·,·,·,-2,-2,·,2.8,-11,·
CC(C)c1ccc(/C=C(\NC(=O)c2ccccc2)C(=O)NCCCn2ccnc2)cc1,3,7,2,-0.9,5,-15,i,-0.8,-3,16
CCc1nc(Nc2ccccc2)c2nnn(Cc3ccccc3)c2n1,38,-30*,-24*,-2.1*,·,-3,i,0.7,6,2.2
Clc1ccc(-c2ncc3ccccn23)cc1,-16,18,15,6.3,0,-5,i,26*,-11,1.6
O=C(Cc1ccc([N+](=O)[O-])cc1)N1N=C(C2CC2)CC1(O)C(F)(F)F (centres undefined),-6,-2,-9,0.1,-2,-10,i,0.3,8,-2.0
Cc1cc(C)c(C)c(S(=O)(=O)N2CCC(C(=O)NCCCN3CCCC3=O)CC2)c1C,·,-6,0,-1.7,5,2,i,·,·,2.2
Cc1ccc(S(=O)(=O)N2CCCC2)cc1C(=O)NCC(C)(C)N1CCOCC1,·,18,10,2.5,-6,-3,i,·,·,0.1
CCCCc1cc(=O)oc2cc(C)cc(OCC(=O)N3CCC(C(N)=O)CC3)c12,9,·,·,·,2,-10,i,1.2,-8,-0.7
COC(=O)CC1COc2ccccc2N1S(=O)(=O)c1ccc(Br)cc1 (centres undefined),12,-21,-42,-6.6,-4,-2,i,-2.5,-2,-0.7
COc1ccccc1CNC(=O)C(=O)NCC1OCCN1S(=O)(=O)c1ccc(Br)cc1 (centres undefined),?,-17,-12,-1.3,·,4,i,4.5,-3,1.4
COc1ccccc1-c1nnc(SCC(=O)Nc2ccc(S(N)(=O)=O)cc2)n1N,4,8,-2,-0.5,1,-5,i,-3.6,3,8.7
COc1cc(Br)cc(/C=N/N(CCO)C2=NS(=O)(=O)c3ccccc32)c1OC,15,-22*,-15*,1.1*,17,-5,i,-2.4,-7,0.6
Cc1ccc(NC(=O)CCn2c(=O)oc3ccccc32)c(C)c1,-7,·,·,·,·,-13,·,0.6,0,·
CC(=O)Nc1ccc(Nc2cc(C)nc(Nc3ccc(NC(C)=O)cc3)n2)cc1,·,-8,1,-2.8,-6,-14,i,·,·,9.4
COc1ccc(CNC(=O)CNS(=O)(=O)c2cccs2)cc1,-2,3,1,-2.1,0,1,i,-1.8,2,0.2
NS(=O)(=O)c1cccc(NC(=O)COc2ccc([N+](=O)[O-])cc2)c1,-3,8,22,3.9,·,-6,i,-1.4,35,0.2
CCOc1ccc(S(=O)(=O)c2c(C(=O)c3ccccc3)cnc3cc4c(cc23)OCCO4)cc1,71*,10,-3,1.8,-8,·,i,-3.5,7,2.5
Cc1ccc(C(=O)Nc2ccc(N3CCCC3)cc2)c(C)c1,-1,-36*,-4.8*,5.8*,·,2,·,-0.5,-8,6.2
Oc1ccc(/C=N/NC(=S)NC2CC3CCC2C3)cc1 (centres undefined),1,·,·,·,10,99*,i,7.4,-6,5.6
O=C(COC(=O)Cc1ccccc1[N+](=O)[O-])Nc1nnc(-c2ccccc2)o1,-10,6,7,-0.8,1,·,i,0.4,9,9.2
O=C(Nc1nnc(C2=COCCO2)o1)c1ccc(S(=O)(=O)N2CCOCC2)cc1,-2,9,10,-0.6,9,7,i,-2.1,-16,-2.5
O=C(Nc1ccc(F)cc1)C(c1ccccc1)N1CCN(C(=O)c2ccco2)CC1 (centres undefined),7,·,·,·,6,0,·,-0.2,-5,·
N#Cc1c(N)nc(N2CCCC2)c(C#N)c1-c1ccc(Cl)cc1,24,·,·,·,6,17,·,0.9,37,·
CCCCn1nc(C(=O)N2CCc3ccccc32)c2ccccc2c1=O,17,·,·,·,-2,-3,·,-0.7,14,·
# More results.
SMILES,T cruzi inh,Ecoli rRNA inh,Ecoli rRNA inh OD600,Ecoli rRNA inh RFP,Beta cell apopt,ALR inh,FGF22 binding,RanGTP-Impb inh,Calb FLC,MLL AF4-AF9 inh
Cc1ccc(NC(=O)COC(=O)/C=C/c2cccc(Cl)c2)cc1S(=O)(=O)N1CCOCC1,2,0,10,2.7,-3,·,i,-1.9,-28,9.0
Cc1cc(-c2c(C)[nH]n(-c3ccc(Cl)cc3)c2=O)n(-c2ccc(Cl)cc2)n1,-40,·,·,·,8,33,·,-2.4,41,·
CCOC(=O)c1cn2nc(Oc3ccc(NC(C)=O)cc3)ccc2n1,-23,12,17,5.8,1,1,i,1.8,5,-1.0
O=S(=O)(CCc1nnc(-c2ccc(Br)cc2)o1)c1ccc(Cl)cc1,-10,·,·,·,5,-9,·,-0.8,-3,·
Oc1ccc(N2CCN(Cc3nc4ccccc4[nH]3)CC2)cc1,-2,6,16,-1.6,1,99*,i,-2.1,-15,6.4
COCCCNc1nnc(Cc2ccccc2)c2ccccc12,20,-22,-20,-2.9,·,0,i,0.4,-20,-0.4
Clc1ccccc1Cc1noc(CN2CCN(Cc3ccccn3)CC2)n1,6,7,12,0.7,-5,-7,i,3.0,-25,1.4
COc1ccc(C(=O)NC(=S)Nc2ccc(Cl)c(C(=O)O)c2)cc1,-12,-10,-18,-2.6,-1,19,i,0.6,-3,-8.0
COc1ccc(C(=O)N2CCN(c3ccccn3)CC2)cc1[N+](=O)[O-],-9,14,10,0.0,-2,1,i,-4.2,-13,-2.2
CCOc1cc2[nH]c(=O)n(Cc3ccc(C(=O)NCCCN4CCCC4=O)cc3)c(=O)c2cc1OCC,-4,4,16,1.2,-1,12,i,3.2,13,1.7
N#C/C(=C\c1ccccn1)c1ccccn1,22,-14,-23,-4.6,-5,7,i,-1.4,10,-1.1
CCN(CC)S(=O)(=O)c1ccc2c(c1)N(CC(=O)NCCN1CCOCC1)C(=O)CO2,-5,5,-1,1.1,·,-3,i,0.3,2,0.1
CC1(OC(=O)c2cccs2)C(=O)C=C2C=C(C3CC3)OC=C2C1=O (centres undefined),-18,9,16,20,-5,-16,i,12,5,·
COC(=O)c1c(NC(=O)c2ccccc2)sc(Cc2ccccc2)c1C,26,·,·,·,3,-11,·,-0.8,-10,·
O=C(Nc1ccc2c(c1)OCCO2)c1cc(F)c(F)cc1Cl,-8,-2,-5,-4.3,-6,3,i,2.3,-3,-5.9
CC1(C)Cc2nc3sc4c(SCC(=O)O)ncnc4c3cc2CO1,3,2,1,1.2,-7,-25,i,-3.7,4,-22
CCOC(=O)Cc1csc(SCC(=O)NC2CCCCC2)n1,-4,11,9,2.6,-2,0,i,-0.2,-13,-1.4
O=C(N/N=C/c1cccc(OCc2ccccc2)c1)c1cccs1,8,·,·,·,9,-1,·,3.7,8,·
Cc1c(C(=O)NNC(=O)Nc2ccc([N+](=O)[O-])cc2)oc2ccccc12,-9,-4,3,3.6,13,0,i,3.5,-3,-7.1

# ALR inh: entries above that show a hit
SMILES | Ecoli rRNA inh | Ecoli rRNA inh OD600 | Ecoli rRNA inh RFP | ALR inh | FGF22 binding | RanGTP-Impb inh | MLL AF4-AF9 inh
Oc1ccc(/C=N/NC(=S)NC2CC3CCC2C3)cc1 (centres undefined) | · | · | · | 99* | i | 7.4 | 5.6
Oc1ccc(N2CCN(Cc3nc4ccccc4[nH]3)CC2)cc1 | 6 | 16 | -1.6 | 99* | i | -2.1 | 6.4

# A portion of the library (hit frequency here may not be typical).
